Screening results from PubChem.
Sa growth 42C = S. aureus growth inhibition at 42 and 30 °C, primary screen, LtaS inhibitor project, RN4220, two temperatures; OD600, 20 h, 42 °C; hits give low values; relative growth, % (no concentration beside the values); 0.53% of 170,000 active; AID 720641, 2013;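 active = growth at 42 °C up to 50% and 20 or more points under that at 30 °C, or under 10% at both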;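 note: 300 nL library stock went into each well; scaled to the means of positive and negative controls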
HCMV UL50-53 inh = inhibitors of HCMV UL50-UL53 interaction, biochemical, HTRF; AID 1918969, 2023; inhibition, % (concentration not given with the values); 0.15% of 190,000 active; normalized percent inhibition; HCMV UL50-UL53 nuclear egress complex (human cytomegalovirus);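 active = both replicates at 50% or more, plus weaker picks with an unusually low signal ratio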;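 note: stock transfer was 100 nL into about 20 µL; 0% = negative control wells and 100% = wells with untagged competitor protein; inactives centre near -12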
GIV-Gai inh = inhibitors of GIV peptide binding to Galpha-i3, primary screen, biochemical, fluorescence polarization, FITC-GIV GBA peptide, rat Galphai3; Guanine nucleotide-binding protein G(i) subunit alpha-3 (Rattus norvegicus), P08753; 90 min; hits give low values; scaled: aluminum fluoride 0%, vehicle 100%; percent of control (FP), % (no concentration beside the values); 0.42% of 210,000 active; AID 1224905, 2016;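 active = replicate mean at 85% of control or lower, very high polarization wells dropped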;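 note: wells of about 15 µL received 100 nL stock; the first replicate is given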
Target sequence (P08753 whole entry, looked up): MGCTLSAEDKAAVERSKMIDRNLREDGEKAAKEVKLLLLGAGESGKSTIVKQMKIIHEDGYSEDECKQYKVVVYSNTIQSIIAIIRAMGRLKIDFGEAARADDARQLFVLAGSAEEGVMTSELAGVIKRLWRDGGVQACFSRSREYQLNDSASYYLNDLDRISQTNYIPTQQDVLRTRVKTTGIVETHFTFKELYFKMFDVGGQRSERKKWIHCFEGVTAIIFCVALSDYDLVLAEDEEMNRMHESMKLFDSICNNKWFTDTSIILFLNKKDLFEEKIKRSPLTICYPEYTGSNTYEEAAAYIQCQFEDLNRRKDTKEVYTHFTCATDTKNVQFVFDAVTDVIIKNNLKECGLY
Sa growth 42C second temp = further read-out of Sa growth 42C, marked with its call; relative growth, %; measured here: growth at 30 °C;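 optical density after 20 h as mean of two plates; 100% = untreated growth and lower means inhibition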
* marks the source's active call; other numbers are inactive results; / = not tested or not shown. Not a hit list (roughly 0.82% active in at least one column).

SMILES	Sa growth 42C	Sa growth 42C second temp	HCMV UL50-53 inh	GIV-Gai inh
COc1ccc2oc(=O)c(-c3nnc(-c4ccccc4)o3)cc2c1	107	108	-43	105
Cc1ccccc1-c1noc(-c2ccc(N3CCCC3)c([N+](=O)[O-])c2)n1	106	88	-16	106
CCN(CC)C(=O)Cn1cc(S(=O)(=O)CC#N)c2ccccc21	98	85	-38	102
O=C(NC1CCN(Cc2ccccc2)CC1)C1CCN(c2cc(-c3ccc(F)cc3)ncn2)CC1	/	/	-24	109
Cc1cc(C)cc(-n2ccnc(NCCc3ccccc3)c2=O)c1	97	84	/	101
NCCCOc1ccccc1	107	87	-20	/
CC(SCC(=O)Nc1ccccc1)c1nc2ccccc2c(=O)[nH]1 (centres undefined)	96	99	11	108
COc1ccccc1C(=O)Nc1ccccc1SCc1cc(=O)c2ccccc2[nH]1	73	83	/	53*
Nc1ccc(Cl)cc1C(=O)NCc1ccccn1	100	85	-16	97
CSc1sc(Cl)c2c1/C(=N\O)CC(C)(C)C2	98	90	-47	102

Exported as a markdown table: part of the list above.
| SMILES | Sa growth 42C | Sa growth 42C second temp | HCMV UL50-53 inh | GIV-Gai inh |
| --- | --- | --- | --- | --- |
| O=C(NC1CCN(Cc2ccccc2)CC1)C1CCN(c2cc(-c3ccc(F)cc3)ncn2)CC1 | / | / | -24 | 109 |
| Cc1ccccc1-c1noc(-c2ccc(N3CCCC3)c([N+](=O)[O-])c2)n1 | 106 | 88 | -16 | 106 |
| COc1ccc2oc(=O)c(-c3nnc(-c4ccccc4)o3)cc2c1 | 107 | 108 | -43 | 105 |
| CCN(CC)C(=O)Cn1cc(S(=O)(=O)CC#N)c2ccccc21 | 98 | 85 | -38 | 102 |
| CSc1sc(Cl)c2c1/C(=N\O)CC(C)(C)C2 | 98 | 90 | -47 | 102 |

Following part:
SMILES	Sa growth 42C	Sa growth 42C second temp	HCMV UL50-53 inh	GIV-Gai inh
O=C(CSc1nc2ncccc2n2cccc12)NCCCc1ccccc1	/	/	-49	110
COc1ccc2nc(SC)c(C#N)cc2c1	126	101	-31	105
CCOC(=O)N1CCc2c(sc3c2c(=O)n(-c2ccccc2)c(=O)n3CC(=O)Nc2ccc(OC)cc2OC)C1	99	91	2	95
Cc1cc(C)c(C)c(S(=O)(=O)N2CCN(CN3C(=O)CNC3=O)CC2)c1C	100	97	-15	/
CCSc1ccccc1C(=O)NCCO	94	101	-20	104
O=C1C2N=NN(CC(=O)N(c3ccccc3)c3ccccc3)C2C(=O)N1c1ccc(Cl)cc1 (centres undefined)	109	83	-20	100
Cc1c(C(=O)Nc2cccc(C(F)(F)F)c2)sc2nc3n(c(=O)c12)CCCC3	95	93	-28	99
Clc1ccc2c(c1)C1C=CCC1C(c1ccccc1)N2 (centres undefined)	108	71	/	127
Cc1nc2nc(C)c(NS(=O)(=O)c3ccc(Cl)s3)c(=O)n2[nH]1	98	83	-26	98
CC(=O)N(c1ccc(F)cc1)c1nc(-c2cc3ccccc3oc2=O)cs1	117	92	/	105

Quoted at random: 2 compounds from above, in no set order.
SMILES	Sa growth 42C	Sa growth 42C second temp	HCMV UL50-53 inh	GIV-Gai inh
COc1ccc2nc(SC)c(C#N)cc2c1	126	101	-31	105
CCSc1ccccc1C(=O)NCCO	94	101	-20	104

Remaining list, next part:
SMILES	Sa growth 42C	Sa growth 42C second temp	HCMV UL50-53 inh	GIV-Gai inh
CCOc1cc(C2CC(=O)NC(SCc3cccc4ccccc34)=C2C#N)ccc1O (centres undefined)	/	/	-30	99
CC(C)=C(C#N)c1nc2ccccc2s1	94	76	-36	109
CC(OC(=O)c1cccnc1)C(=O)Nc1ccc2c(c1)OCO2 (centres undefined)	73	84	-4	/
COc1ccc2oc(C(=O)OCC#N)c(C)c2c1	80	93	-17	/
O=C(COc1ccccc1F)NN1C(=O)NC2(CCCCC2)C1=O	97	82	-13	/
Cc1ccc(SCCNC(=O)c2ccc3ccccc3n2)cc1	58	75	-21	/
O=C(Cn1c(=O)n(-c2ccccc2)c(=O)c2ccc(C(=O)NCc3ccc4c(c3)OCO4)cc21)Nc1ccc(Br)cc1F	105	108	7	101
CC(=O)Nc1ccc(Nc2nnc(-c3ccc(C)c(S(N)(=O)=O)c3)c3ccccc23)cc1	101	101	-48	105
COc1ccc(N2C(=O)CC(N3CCCCC3C)C2=O)cc1 (centres undefined)	51	64	-1	107
Cc1ccc(NC(=O)CSc2ncccn2)c(S(=O)(=O)N2CCCCC2)c1	94	94	-19	/
COc1ccc2[nH]c3c(=O)n(CCN4CCC(Cc5ccccc5)CC4)cnc3c2c1	102	91	/	97
COc1ccc2cc(-c3nc(N)ncc3C)ccc2c1Br	/	/	-18	98
O=C(NC1CCCCC1)C(c1ccccn1)N(C(=O)Cn1nnc(-c2ccccc2)n1)c1ccc2c(c1)OCO2 (centres undefined)	96	106	8	100
Cc1cc(C)c2c(c1)NC(=O)C2(O)c1c[nH]c2ccccc12 (centres undefined)	122	89	-10	108
O=C(O)C1C2C=CC(C2)C1C(=O)NC1CCN(Cc2ccccc2)CC1 (centres undefined)	93	87	-38	102
C=CCC1CC(=O)N(c2ccc(Cl)cc2)C1=O (centres undefined)	102	95	-17	106
CCn1c(C(=O)O)c(CC(=O)Nc2ccc(Br)cc2C)c2ccccc21	/	/	-16	101
O=c1[nH]c(=S)n(-c2cccc3ccccc23)c(O)c1/C=C1\C=Nc2ccccc21	79	79	7	/
CC(=O)Nc1ccccc1C(=O)C(=S)N1CCN(C)CC1	99	82	-22	/
Cc1ccc(-n2c(=O)c3c(c4cc(C)ccc4n3C)n(CC(=O)NCc3ccccc3Cl)c2=O)cc1	91	89	-13	101
CCn1c(CN2CCN(C)CC2)nc2cc(NC(C)=O)ccc21	/	/	-12	104
CC(C#N)OC(=O)c1c(-n2cccc2)sc2c1CCCC2 (centres undefined)	73	76	7	/
CC1C/C(=C/c2ccncc2)C(=O)/C(=C/c2ccncc2)C1 (centres undefined)	89	49	/	68*
Cc1c(NC(=O)c2nn3c(c2Cl)NC(c2ccco2)CC3C(F)(F)F)c(=O)n(-c2ccccc2)n1C (centres undefined)	/	/	2	99
Cc1ccc(OCC(=O)O)c(C)c1	94	94	-5	/
Cc1cc(C)c(S(=O)(=O)Nc2cc(C(=O)O)cnc2N2CCCC2)c(C)c1	/	/	-16	101
CC(=O)NCc1ccc(C(=O)CSc2nc(C)nc3scc(-c4cccs4)c23)o1	75	98	-23	/
COC(=O)Cc1nc(-c2ccccc2)oc1C	103	84	-17	98
CCC(=O)Nc1ccc2c(c1)C(=O)Nc1cc(C)ccc1O2	/	/	-26	100
C=CCn1c(C)cc(C(=O)COC(=O)C2C(C(=O)OCC)=C(C)NC(C)=C2C(=O)OCC)c1C	93	92	-10	/

Compound profiles (already shown):
CCC(=O)Nc1ccc2c(c1)C(=O)Nc1cc(C)ccc1O2 is listed with Sa growth 42C = /; Sa growth 42C second temp = /; HCMV UL50-53 inh = -26; GIV-Gai inh = 100
CC(C#N)OC(=O)c1c(-n2cccc2)sc2c1CCCC2 (centres undefined) is listed with Sa growth 42C = 73; Sa growth 42C second temp = 76; HCMV UL50-53 inh = 7; GIV-Gai inh = /

Other records follow:
SMILES	Sa growth 42C	Sa growth 42C second temp	HCMV UL50-53 inh	GIV-Gai inh
Cc1ccccc1Nc1sc(C(=O)c2ccc(F)cc2)c(N)c1C(=O)NCCc1ccccc1	98	93	/	100
CC1CCN(Cc2nnc(-c3ccccc3)o2)CC1	/	/	4	101
CCN(C(=O)COc1ccc(Cl)cc1Cl)c1cccc(C)c1	91	90	-32	/
CCC1CCC2(CC1)NNC(=S)NN2	81	66	5	/
O=C1N/C(=N/N=C/c2cccs2)SC1Cc1ccccc1 (centres undefined)	119	109	-1	97
Cc1ccc(Sc2c(-c3ccccc3)nc3sccn23)cc1	126	91	/	104
O=C(CN1C(=O)C2C3C=CC(C3)C2C1=O)OCCCc1ccccc1 (centres undefined)	113	78	/	104
CSc1ccccc1NC(=O)CSc1nccn1C	99	89	-10	/
CCc1nc(N2CCc3ccccc32)c2onc(-c3ccc(C)cc3)c2n1	/	/	-17	104
Cc1ccc(N2CCN(C(=O)Cn3ncc4c([nH]c5ccc(C)cc54)c3=O)CC2)c(C)c1	93	87	/	104
C=C(C)CSc1nc2sc3c(c2c(=O)n1-c1ccccc1)CCC(C)C3 (centres undefined)	89	81	-62	108
C=CCOc1c(CNc2ccc(C(=O)O)cc2)cccc1OCC	79	91	-23	105
Cc1cccc2[nH]ncc12	96	85	-2	96
COC(=O)c1c(NC(=O)c2ccc(S(=O)(=O)N(C)C3CCCCC3)cc2)sc2c1CCN(C)C2	118	89	/	115
O=C(Nc1ccc(F)cc1)Nc1ccc2c(c1)C(=O)OC2	103	67	/	103
CCCCC1(c2ccccc2)NC(=O)NC1=O (centres undefined)	92	85	-13	/
Cc1oc(-c2cccc(Cl)c2)nc1CN1CCN(C(=O)C(C)C)CC1	/	/	-15	108
COc1ccc(N2C(=O)CC2(/C=C/c2ccccc2)C(=O)NC2CCCCC2)cc1 (centres undefined)	98	90	10	/
Cc1ccc(NC(=O)NCCCn2c(-c3ccncc3)nc3cccnc32)c(Cl)c1	/	/	13	108
CCSc1nnc(NC(=O)C(C)Sc2ccccc2)s1 (centres undefined)	92	85	-37	101
CCOc1cc(CN2CCCC2c2ccc(Cl)cc2)ccc1OCC(N)=O (centres undefined)	/	/	-16	104
CC1CCCN(C(=O)c2cc(C3CC3)[nH]n2)C1 (centres undefined)	/	/	-2	106
O=C(Cn1ccn2nc(-c3ccc4c(c3)OCO4)cc2c1=O)Nc1ccc2c(c1)OCCO2	/	/	9	104
NC1=NC(=O)/C(=C\c2ccccc2C(F)(F)F)S1	55	29	-20	/
CCN1CCN(C(=O)C(C)N2C(=O)CCCc3ccccc32)CC1 (centres undefined)	/	/	0	114
Cc1ccc(C(=O)N2N=C(c3ccc(Br)cc3)CC2c2ccco2)cc1 (centres undefined)	/	/	-9	102
CC(=O)N1Cc2ccccc2CC1C(=O)OCc1ccc(C#N)cc1 (centres undefined)	86	86	-24	/
CCOc1ccc(NS(=O)(=O)c2ccc(C(=O)N(C)C)s2)cc1	98	94	/	99
O=C(O)c1ccc(C(=O)O)s1	101	90	-20	99
C=CCC(c1ccco1)N(C(C)=O)c1ccccc1 (centres undefined)	110	78	-15	102
COC(=O)c1c(NC(=O)/C=C/c2ccc(OC)c(OC)c2)sc2c1CCC2	105	89	-51	109
Cc1cc(N2CCN(C)CC2)nc2ccc(NC(=O)C3CCC(C(C)(C)C)CC3)cc12 (centres undefined)	165	102	/	105
O=C1CC(c2ccccc2)=Nc2ccccc2N1Cc1c(F)cccc1Cl	/	/	-17	99
COc1ccc(NC(=O)C2CCCCN2/N=C/c2ccc(OC)c(OCC(C)C)c2)cc1OC (centres undefined)	98	95	-23	/
Cc1cccc(-c2nc(NCc3ccc4c(c3)OCO4)c3ccccc3n2)c1	/	/	6	104
C=CCN1C(=O)SC(CC(=O)Nc2ccccc2)C1=O (centres undefined)	94	74	-12	101
Cc1ccc(C(=O)Oc2cc(N)n(S(=O)(=O)c3ccc(F)cc3)n2)cc1	/	/	-25	99
Cc1csc2c(N(C)C)ncnc12	85	83	-23	106

Arranged by SMILES length (high to low): some entries from above
SMILES	Sa growth 42C	Sa growth 42C second temp	HCMV UL50-53 inh	GIV-Gai inh
O=C(Cn1c(=O)n(-c2ccccc2)c(=O)c2ccc(C(=O)NCc3ccc4c(c3)OCO4)cc21)Nc1ccc(Br)cc1F	105	108	7	101
Cc1cc(C)c(C)c(S(=O)(=O)N2CCN(CN3C(=O)CNC3=O)CC2)c1C	100	97	-15	/
CC(=O)NCc1ccc(C(=O)CSc2nc(C)nc3scc(-c4cccs4)c23)o1	75	98	-23	/
Cc1ccc(NC(=O)NCCCn2c(-c3ccncc3)nc3cccnc32)c(Cl)c1	/	/	13	108
CCn1c(C(=O)O)c(CC(=O)Nc2ccc(Br)cc2C)c2ccccc21	/	/	-16	101
O=C(COc1ccccc1F)NN1C(=O)NC2(CCCCC2)C1=O	97	82	-13	/
CC(=O)Nc1ccccc1C(=O)C(=S)N1CCN(C)CC1	99	82	-22	/
